Screening data: PubChem BioAssay, National Center for Advancing Translational Sciences (NCATS)
SARS PLpro yeast = blocks SARS-CoV papain-like protease in a yeast assay; Potency, µM (top dose mostly 32.9 µM), without a hit: top-dose activity, positive = growth rescue; AID 485353; actives 0.19% (n = 330,000); S. cerevisiae expressing SARS-CoV PLpro, growth rescue; control for the full effect not named in the record; also: 0% is about no effect; nearly all actives have a fitted effect of over 55% in size; growth read by luminescence after 48 h
StopGo reporter = FMDV 2A StopGo reporter, luciferase signal | human cells with a luciferase reporter of 2A StopGo recoding; control for the full effect not named in the record | Potency, µM (series often up to 57.9 µM), for inactives: top-dose signal change, negative = less light | actives 1.2% (n = 410,000) | AID 1159524; active = well fitted falling curve with a large enough effect; inconclusive = small, poorly fitted or top-dose-only effect; inactive = no such curve, though single readings can be large or run the other way; tested in HEK293T cells; also: % is scaled to controls: 0 for no effect and ±100 for the full control effect; nearly all actives have a fitted effect of over 45% in size; luciferase light after 4 h
Marburg entry inh = Marburg virus entry inhibition; Marburg virus pseudotyped entry inhibition, cell reporter; control for the full effect not named in the record; about a third of the inactives were read at about 46 µM; Potency, µM (highest dose often 37.8 µM), for inactives: at the top dose activity change, negative = inhibition, most hits filed as inhibitors; actives 1.8% (n = 300,000); active = well fitted inhibition curve with a large enough effect; inconclusive = small, poorly fitted or top-dose-only effect, or effect the other way; inactive = flat fitted curve, though single readings scatter; tested in HEK293 cells; about a fifth of its hits are not listed in these tables; also: % is scaled to controls: 0 for no effect and ±100 for the full control effect; luciferase read-out
Cruzain inh Det = cruzain (T. cruzi) inhibition with detergent. actives 0.43% (n = 200,000). Potency, µM, without a hit: max response, negative = inhibition, most hits filed as inhibitors. purified cruzain, Z-FR-AMC fluorescence, 0.01% Triton. P25779; active = well fitted curve in the direction sought with a large enough effect; inconclusive = small, poorly fitted or top-dose-only effect, or another doubt; inactive = no such curve, though single readings can be large; an effect the other way counts as inactive or inconclusive;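 also: plate controls were neutral wells for no effect and buffer without enzyme for full effect; nearly all actives have a fitted effect of over 40% in size; top concentration of the series not given in the record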
Target sequence (P25779 123-467 limits assumed): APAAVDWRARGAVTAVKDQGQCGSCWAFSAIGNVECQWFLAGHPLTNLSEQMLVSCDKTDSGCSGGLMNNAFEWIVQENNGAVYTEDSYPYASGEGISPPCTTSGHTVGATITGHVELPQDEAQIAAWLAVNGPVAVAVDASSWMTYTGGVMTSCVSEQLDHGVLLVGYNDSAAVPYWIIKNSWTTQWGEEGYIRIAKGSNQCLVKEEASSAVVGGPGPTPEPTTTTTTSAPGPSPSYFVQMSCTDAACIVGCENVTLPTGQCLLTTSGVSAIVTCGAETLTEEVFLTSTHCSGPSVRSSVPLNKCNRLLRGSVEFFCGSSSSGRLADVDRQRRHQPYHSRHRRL
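Cysteine protease activity tested under reducing, mildly acidic conditions (100 mM sodium acetate pH 5.5, 5 mM DTT) plus 0.01% Triton X-100. Cruzain 1.5 nM; substrate Z-FR-AMC 2 uM; 15 min compound preincubation at room temperature.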
RE007 growth inh = less growth of the S. pombe RE007 Vpr strain | Potency, µM (series often up to 92.2 µM), without a hit: at the top dose activity change, negative = less growth | S. pombe RE007 Vpr strain, BacTiter-Glo ATP luminescence, 24 h; control for the full effect not named in the record | actives 0.21% (n = 360,000); active = well fitted falling curve with a large enough effect; inconclusive = small, poorly fitted or top-dose-only effect; inactive = no such curve, though single readings can be large or run the other way;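 also: % is scaled to controls: 0 for no effect and ±100 for the full control effect; nearly all actives have a fitted effect of over 50% in size; the assay follows cell death caused by Vpr and the record does not say whether a fall means rescue or toxicity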
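Fission yeast strain RE007, carrying one chromosomally integrated HIV-1 vpr copy, was seeded at OD 0.01 in PMG+AL medium with 23 nL pinned compound. After 24 h at 30 °C and 99% humidity, viability was read by BacTiter-Glo luminescence.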
LASV entry inh = blocks Lassa virus binding to or entry into cells; actives 1.2% (n = 300,000); AID 540256; Potency, µM (doses to about 37.9 µM), without a hit: at the top dose activity change, negative = inhibition, actives largely listed as inhibitors; Lassa virus pseudotype entry inhibition, cell reporter; control for the full effect not named in the record; active means well fitted inhibition curve with a large enough effect; inconclusive means small, poorly fitted or top-dose-only effect, or effect the other way; inactive means flat fitted curve, though single readings scatter; tested in HEK293 cells; also: % is scaled to controls: 0 for no effect and ±100 for the full control effect; nearly all actives have a fitted effect of over 50% in size; luciferase read-out
Cruzain noTriton = cruzain (T. cruzi) inhibition without detergent | Potency, µM, for the others: max response, negative = inhibition, actives largely listed as inhibitors | actives 2.3% (n = 200,000) | purified cruzain, Z-FR-AMC fluorescence, no detergent | AID 1476; active = well fitted curve in the direction sought with a large enough effect; inconclusive = small, poorly fitted or top-dose-only effect, or another doubt; inactive = no such curve, though single readings can be large; an effect the other way counts as inactive or inconclusive;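 also: plate controls were enzyme without inhibitor for no effect and buffer without enzyme for full effect; nearly all actives have a fitted effect of over 40% in size; top concentration of the series not given in the record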
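Purified cruzain at 1.5 nM, pre-incubated 15 min with compound at room temperature in 100 mM sodium acetate pH 5.5, 5 mM DTT, 0.00005% Triton X-100. Reaction started with 2 uM Z-FR-AMC; AMC fluorescence increase over 60 s gives rate.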
NS1 inh = influenza NS1 inhibition | actives 0.4% (n = 270,000) | Potency, µM (titrated, usually from 46.1 µM), inactives show top-dose activity, positive = more growth | S. cerevisiae slowed by influenza A NS1, growth recovery by OD600; also: actives are rising curves; nearly all actives have a fitted effect of over 50% in size
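S. cerevisiae expressing influenza A NS1, grown in glucose, washed, then diluted 1:100 into pH 6.0 -URA galactose medium with 23 nl compound. Growth recovery read as OD600; NS1-free strain serves as control.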
Starred values were filed as active, the others as inactive; ? = inconclusive; nt = not tested or not shown; & = joins results of further samples; [ ] = dose if it differs, or a comment. Unless noted, calls follow the shape of the dose curve; as a rule, active means well fitted rising curve with a large enough effect; inconclusive means small, poorly fitted or top-dose-only effect; inactive means no such curve, though single readings can be large or run the other way. Potency is read from the fitted curve at half-maximal effect.

SMILES	SARS PLpro yeast	StopGo reporter	Marburg entry inh	Cruzain inh Det	RE007 growth inh	LASV entry inh	Cruzain noTriton	NS1 inh
COc1ccc(C)cc1S(=O)(=O)Nc1cc2c3c(c1)C(C)C(=O)N3CCC2 (stereo not given)	1%	30%[activator]	-2%	nt	0%	-13%	nt	nt
CNC(=O)c1c(NC(=O)/C=C/c2ccccc2)sc2c1CCC2	nt	37%[activator]	nt	-8.8%	nt	-6%[46.1 µM]	-26%	nt
C=C1N2CCC(CC2)C1(O)c1ccc(C)cc1 (stereo not given)	12%	8%	-25%	4.8%	2%	6%	-5%	-5%
COc1ccc(/C=C(\NC(=O)c2ccccc2)C(=O)N2CCN(C)CC2)cc1	2%	5%	4%[46.1 µM]	nt	3%	12%	nt	-4%
COc1ccc2cc(CCNC(=O)CCc3ccccc3)c(=O)[nH]c2c1	-2%	-11%	nt	nt	4%	nt	nt	4%
Cc1cccc(-n2c(=O)c3c(c4cc(C)ccc4n3C)n(CC(=O)NCCC3=CCCCC3)c2=O)c1	nt	-18%	nt	1.0%	nt	21%[46.1 µM]	2%	nt
Cc1c(NC(=O)CCCCCN2C(=O)C3C4C=CC(C4)C3C2=O)c(=O)n(-c2ccccc2)n1C (stereo not given)	-1%	-4%	nt	-1.7%	11%	nt	9%	18%
C/C(Cl)=C/CC1(CN2CCCC2=O)C(=O)NC(=O)NC1=O	6%	-7%	-3%	4.9%	-5%	-2%	-1%	6%
O=C(CCCCCCCC(=O)N1CCCCC1)N1CCCCC1	nt	14%	-6%	nt	4%	-6%	nt	nt
O=C(NCc1ccccc1)Nc1cccn(Cc2c(F)cccc2Cl)c1=O	1%	?	nt	nt	6%	nt	nt	0%
Cc1nc2ccccn2c(=O)c1NC(=O)c1cccc2ccccc12	-5%	-18%	-18%	nt	0%	18%	nt	nt
Cc1cc(C)c2nc(SC(C)C(=O)NCC(=O)Nc3ccc(F)c(F)c3F)cc(C)c2c1 (stereo not given)	-1%	1%	?	-3.4%	21%	-6%	12%	2%
Cc1[nH]c2ccccc2c1SCC(=O)NNC(=O)Nc1ccc(OC(F)(F)F)cc1	0%	-18%	?	nt	8%	2%	nt	3%
COc1ccc(OC)c(-n2c(-c3cc(-c4ccco4)[nH]n3)n[nH]c2=S)c1	1%	-1%	7%	nt	8%	0%	nt	5%
C=CCN1C(=O)C(CC(=O)Nc2ccccc2)S/C1=N/c1nccs1 (stereo not given)	0%	24%	?	nt	19%	15%[46.1 µM]	nt	-1%
Fc1ccc(Cn2nnc(-c3ccc(CN4CCOCC4)cc3)n2)cc1	-2%	-7%	17%	9.4%	-6%	-1%	18%	-8%
CC(C)NC(=O)Cn1cnc2c1c(=O)n(C)c(=O)n2C	1%	15%	8%	6.0%	1%	1%	-7%	5%
O=C(OCCCN1CCOCC1)c1ccc(O)c(O)c1	1%	-3%	nt	nt	1%	nt	nt	0%
COCCN(C(=S)Nc1ccc(C)cc1C)C(C)c1ccco1 (stereo not given)	1%	18%	10%[46.1 µM]	nt	2%	13%[46.1 µM]	nt	nt
COc1ccc(NC(=O)c2cc3c(=O)n(Cc4ccco4)ccc3nc2C)c(OC)c1	nt	-3%	nt	-0.3%	nt	4%[46.1 µM]	-8%	nt
CCOC(=O)C(NCc1ccc(F)cc1)(NC(=O)c1ccccc1)C(F)(F)F (stereo not given)	-21%	?	1%	-0.9%	-2%	?	?	-15%
COc1ccc(S(=O)(=O)N(C)CC(=O)NCc2cccnc2)cc1	4%	10%	1%	2.2%	2%	0%	2%	-9%
CCCCN(C(=O)c1cccc(S(=O)(=O)N2CCCCC2)c1)C1CCS(=O)(=O)C1 (stereo not given)	17%	6%&1%	nt	-1.7%	10%	-3%[46.1 µM]	14%	4%
Cc1nc2c(cc1NC(=O)C(C)(C)C)nc(C)n2Cc1ccccc1	-3%	-3%	nt	nt	2%	nt	nt	7%
COc1ccc(S(=O)(=O)N(CC(=O)NCc2ccncc2)c2ccc(C)cc2)cc1Br	3%	13%	-41%[46.1 µM]	nt	-15%	-26%[46.1 µM]	nt	-15%
Cc1ccc(C)n1-c1ccc(C#N)cn1	-1%	-9%	18%	nt	0%	15%	nt	nt
O=C(Nc1cccc2nsnc12)c1ccc(F)cc1	-5%	12%	5%	4.2%	-29%	4%	-1%	-8%
COc1cccc(N2C(=O)C(CC(=O)Nc3ccc(F)cc3)N(CCC3=CCCCC3)C2=O)c1 (stereo not given)	nt	-18%	?	-6.3%	nt	?	-3%	nt
CN(Cc1nc2ccccc2c(=O)[nH]1)CC(O)COCc1ccco1 (stereo not given)	2%	12%	13%	-0.5%	5%	16%	-6%	5%
Cn1c(CSCc2ccc(Cl)cc2)nnc1SCC(=O)Nc1nccs1	12%	?	-12%	-1.4%	-4%	0%	1%	-16%
CCOC(=O)c1cc(CC)sc1NC(=O)CN1CCN(C(=O)C2CCCO2)CC1 (stereo not given)	-5%	-24%	11%	nt	19%	?	nt	-29%
CCN(c1ccccc1)S(=O)(=O)c1ccc(Cl)c(C(=O)NC2CCN(Cc3ccccc3)CC2)c1	nt	?	?	nt	-6%	?	nt	nt
CCc1ccc(CNC(=O)CCc2nc(-c3cccs3)no2)cc1	-6%	-16%	nt	-2.1%	-17%	nt	-7%	-6%
COCC(=O)N1CCCN(c2nc3c(C)cccc3cc2C#N)CC1	-4%	-15%	8%[46.1 µM]	-2.1%	16%	?	17%	-2%
COc1ccc(-n2c(=S)[nH]c3cc(C(=O)NCCCN4CCOCC4)ccc3c2=O)cc1	-8%	1%	-1%[46.1 µM]	nt	-10%	10%[46.1 µM]	nt	-3%
CC(=O)c1cccc(NC(=O)CCS(=O)(=O)c2cc3c(cc2C)NC(=O)CO3)c1	-1%	8%&-10%	nt	-3.8%	2%	0%[46.1 µM]	7%	16%
CN1C(=O)NC(c2ccccc2[N+](=O)[O-])C2=C1CCCC2=O (stereo not given)	0%	-10%	1%[46.1 µM]	nt	4%	?	nt	7%
CCN(CC)CCn1c(=S)[nH]c2cc3c(cc2c1=O)OCO3	-14%	20%	?	-0.4%	1%	-3%	4%	?
CCCC[n+]1c(C)sc2cc(OC)ccc21	-1%	6%	nt	nt	9%	nt	nt	8%
COc1cc(/C=C2\C(=N)N3N=C(C)SC3=NC2=O)cc(Cl)c1OCCOc1ccc(NC(C)=O)cc1	0%	-3%	nt	nt	6%	nt	nt	2%
CCN(CC(=O)NCc1ccc(F)cc1)C(=O)c1ccc(COc2ccccc2)cc1	-3%	18%	26%	nt	-7%	?	nt	13%
Cc1ccc(C(=O)NNc2nc3ccccc3nc2C(F)(F)F)cc1	4%	27%	?	3.3%	-6%	3%	5%	7%
COC(=O)c1ccccc1NC(=O)c1ccc2nc(Cc3ccccc3)oc2c1	nt	-5%	nt	-0.1%	nt	17%[46.1 µM]	-7%	nt
O=C(Nc1c(Cl)cc2c(c1Cl)Cc1cc([N+](=O)[O-])ccc1-2)C(Cl)Cl	nt	6%	?	nt	3%	?	nt	nt
O=C(Cn1ccc2ccccc2c1=O)NCCC(=O)N1CCN(c2cccc(Cl)c2)CC1	-3%	?	?	-0.5%	-7%	-6%	?	4%
Cc1cc(C)c2nc(NCc3ccccc3O)sc2c1	1%	41%[activator]	nt	nt	1%	nt	nt	3%
O=c1oc2cc(O)ccc2cc1-c1nnc(Nc2ccccc2F)s1	nt	13%	nt	-1.0%	nt	?	-10%	nt
COc1ccc(Cn2ccnc2SCC(=O)Nc2ccccc2F)cc1	-5%	-14%	nt	nt	-11%	nt	nt	-2%
COc1ccc(CCNC(=O)C(=O)NCC2OCCN2C(=O)c2ccc(Cl)cc2)cc1OC (stereo not given)	nt	-27%	24%	nt	-15%	3%	nt	12%
Cc1ccccc1NS(=O)(=O)c1ccc2[nH]c3c(c2c1)CCCCC3	nt	42%[activator]	nt	-9.8%	nt	9%[46.1 µM]	?	nt
Cn1cc(Br)c(C(=O)NNC(=O)c2ccc(Br)cc2)n1	-13%	22%	22%	0.8%	10%	3%	0%	-19%
O=C(CNC(=O)c1cccs1)Nc1ccc(N2CCOCC2)cc1	0%	5%	-7%	nt	3%	18%	nt	nt
Cc1ccc2cc(C#N)c(N3CCCN(S(=O)(=O)c4ccccc4)CC3)nc2c1C	nt	-11%	?	nt	-4%	-4%	nt	nt
CCC1=C(c2ccc(C)cc2)S(=O)(=O)N=C1N1CCC(C(=O)NCc2ccc(C)cc2)CC1	nt	-26%	?	-4.3%	nt	nt	22%	nt
COc1ccc(-c2nn(C)c3sc(C(=O)N4CCN(c5ccccc5F)CC4)cc23)cc1OC	nt	-20%	8%[46.1 µM]	-1.4%	nt	-2%[46.1 µM]	-12%	nt
Cc1nc2nc(SCC(=O)c3ccc([N+](=O)[O-])cc3)[nH]c2cc1Br	-13%	5%	-14%	-1.9%	nt	-6%	?	21%
CCn1c(-c2cc3ccccc3cc2O)n[nH]c1=S	5%	?	-2%	-5.5%	19%	35%	0%	-8%
CC(C)(C)OC(=O)N1CCC(c2c(C(=O)NC3CC3)cnn2-c2ccccc2)CC1	1%	-5%	nt	nt	2%	nt	nt	-2%
Cn1nc(C(=O)NCc2cccc(Cl)c2)c2c1-c1ccccc1SC2	nt	24%	-1%[46.1 µM]	-2.7%	nt	5%[46.1 µM]	-5%	nt
COC(=O)CNC(=O)C(NC(=O)c1ccc(Cl)cc1)C(C)C (stereo not given)	3%	-13%	-13%	-5.9%	-5%	?	6%	0%

Additional structures:
SMILES	SARS PLpro yeast	StopGo reporter	Marburg entry inh	Cruzain inh Det	RE007 growth inh	LASV entry inh	Cruzain noTriton	NS1 inh
O=C(C1CCCCC1)N(Cc1nc2sc3c(c2c(=O)[nH]1)CCCC3)Cc1cccs1	24%	-14%	?	-9.0%	-2%	-13%	-9%	-44%
C=CCc1ccc(OCC(O)CN2CCc3ccccc3C2)c(OC)c1 (stereo not given)	-9%	-14%	?	nt	8%	?	nt	-14%
Cc1cc(N2CCN(c3ncccn3)CC2)nc2c(C)cccc12	-1%	?	?	nt	-16%	-10%	nt	-2%
O=S(=O)(c1ccccc1)c1nc(-c2ccc(Cl)cc2Cl)oc1N1CCCCC1	nt	12%	nt	-16%	nt	?	-16%	nt
Cc1ccc(Cl)cc1N1CCN(Cc2nnnn2C2CCCCC2)CC1	-8%	?	?	-3.5%	27%	?	26%	-61%
O=c1[nH]cnc2nn(-c3ccccc3)nc12	0%	62%[activator]	?	3.4%	-4%	9%	11%	-12%
